Source: PubChem BioAssay
Mtb hypoxia rep – inhibitors of hypoxia-regulated fluorescent reporter in Mycobacterium tuberculosis; M. tuberculosis hypoxia-regulated fluorescent reporter, fluorescence; AID 1159583; fluorescence inhibition, % (no concentration beside the values); 300,000 compounds, 0.1% hits;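 active = 35 to 45% if threefold the growth effect, above 45% if 1.5-fold the growth effect; inactive = the rest, general growth blockers included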;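 note: wells of about 50 µL received 100 nL stock; 0% = vehicle wells and 100% = reference inhibitor wells; whole bacteria with a GFP reporter of the hypoxia response; strong numbers were not always called active; many hits fall short of the cut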
Sa ugtP lethal – kills S. aureus RN4220 lacking UgtP; AID 1259309; growth inhibition, % (no concentration beside the values); 330,000 compounds, 0.54% hits; S. aureus RN4220 ugtP deletion, OD600 growth, 16 h; some inactives read as strong as hits;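 active = z-score under -3 and OD600 up to 0.15 on both plates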;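 note: plate controls were untreated wells for no effect and antibiotic for full effect; wells of about 80 µL received 100 nL stock; the first replicate is given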
Bead autofluor – compound fluorescence in toxin protease inhibitor counterscreen; compound autofluorescence counterscreen, microsphere flow cytometry; active compounds read high; 360,000 compounds, 3.1% hits; AID 624483; fluorescence intensity (no concentration beside the values);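 active = at least 3 SD above the mean of all compounds, about 16000 in these data; inconclusive = too few beads counted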;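 note: 100 nL of 1 mM stock went into each well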
Sa RN4220 lethal – S. aureus RN4220 growth inhibition | OD600, 16 h | inhibition, % (concentration not given with the values) | 330,000 compounds, 0.33% hits;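 active = z-score of -3 or lower and OD600 up to 0.18 on both plates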;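 note: plate controls were untreated cells for no effect and reference antibiotic for full effect; stock transfer was 100 nL into about 80 µL; one replicate is shown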
BJeLR viability – BJeLR cell viability loss; BJeLR (HRASV12) viability, CellTiter-Glo ATP luminescence, 48 h; reference of the scale not given here; 300,000 compounds, 0.17% hits; inhibition, % (no concentration beside the values);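 active = replicate mean above 50%; inconclusive = above 50% but judged a plate artefact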;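 note: 50 nL library stock added to about 25 µL; numbers are from one replicate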
PrP 5UTR inh – inhibition of PrP 5' UTR reporter expression. cell-based PrP 5' UTR mRNA reporter, plate reader. inhibition, % (no concentration beside the values). 340,000 compounds, 0.35% hits. AID 488862;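 active = every replicate at 50% or more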;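 note: 0 = median of the neutral control wells; tested in H4 reporter cells; numbers are from one replicate; inactives centre near -14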
Mtb hypoxia rep growth – further read-out of Mtb hypoxia rep, marked with its call; growth inhibition, %; measured here: M. tuberculosis growth (absorbance);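 0% = vehicle and 100% = reference antibiotic; read after six days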
Active calls of the source: *; ? = inconclusive; / = not tested or not shown.

no.	Molecule	Mtb hypoxia rep	Mtb hypoxia rep growth	Sa ugtP lethal	Bead autofluor	Sa RN4220 lethal	BJeLR viability	PrP 5UTR inh
1	CCOc1ccc(N(C(C)C(=O)NC(C)CC)S(C)(=O)=O)cc1 (configuration not stated)	3	7	-3	19908*	1.1	-4	-20
2	O=C(O)c1ccc(NCc2cccc(Br)c2)cc1	-3	3	-3	2615	0.3	-6	-16
3	Cc1ccc(NC(=O)CC2S/C(=N/N=C/c3ccco3)NC2=O)cc1Cl (configuration not stated)	/	/	/	2640	/	8	-16
4	Cc1cc(O)c2c(=NN)c(-c3csc(C)n3)coc2c1	15	3	5	/	5.3	/	/
5	CC[C@]12c3[nH]c4ccc(Cl)cc4c3CCN1C(=O)[C@@H](CC(=O)NCc1ccco1)C[C@@H]2C(=O)N1CCN(C(=O)c2ccco2)CC1	1	3	0	3870	-1.8	/	-4
6	Cc1cc(Br)c(NC(=O)COn2nnc3ccc(S(C)(=O)=O)cc32)c(Br)c1	2	2	17	3108	8.0	-4	-9
7	Cc1cc(Br)c(NC(=O)CCl)c(Br)c1	11	10	13	2568	6.7	-12	-27
8	O=C(OCC(=O)N1CCc2ccccc21)[C@@H]1CCCN1S(=O)(=O)c1ccccc1F	-12	-9	12	2898	6.0	/	-24

no.	Molecule	Mtb hypoxia rep	Mtb hypoxia rep growth	Sa ugtP lethal	Bead autofluor	Sa RN4220 lethal	BJeLR viability	PrP 5UTR inh
9	CN1CCc2c(c(N3CCCCC3)nc3n[nH]c(N)c23)C1	-1	3	1	20525*	-1.1	7	-7
10	COc1cc(/C=N/n2cnnc2)ccc1OCCOc1ccccc1	/	/	/	5002	/	8	-25
11	OCCCCCN=c1cc(-c2ccccc2)oc2ccc(Cl)cc12	24	8	1	3291	-1.2	7	-22
12	COc1cc(/C=N/NC(N)=O)ccc1OC(=O)c1ccco1	/	/	/	3890	/	17	-3
13	COc1ccc(C(=O)Nc2nc(N3C(=O)c4ccccc4C3=O)n(-c3ccccc3)n2)cc1	/	/	3	4498	4.7	12	-2
14	Cc1noc(C)c1S(=O)(=O)Nc1ccc2c(c1)C(=O)N([C@H](C)CO)C[C@H](C)[C@@H](CN(C)C(=O)Nc1ccc(C(F)(F)F)cc1)O2	-5	2	-8	2907	-5.9	/	-3
15	Cn1c(=NC(=O)CSCC(=O)N2CCCCC2)sc2ccccc21	/	/	8	2865	2.2	3	-7
16	Cc1ccc(NC(C)C(=O)NN=Cc2ccc([N+](=O)[O-])s2)cc1 (configuration not stated)	7	5	3	/	12	/	/

no.	Molecule	Mtb hypoxia rep	Mtb hypoxia rep growth	Sa ugtP lethal	Bead autofluor	Sa RN4220 lethal	BJeLR viability	PrP 5UTR inh
17	CCOC(=O)N1CCc2c(sc(NC(=O)CN(CC)CC)c2C#N)C1	-8	4	8	3511	1.4	11	-23
18	COc1ccc(C(=O)N2CCN(C3CCCCC3)CC2)c(OC)c1	9	8	-7	10653	1.6	-2	-4
19	Cc1nc2c(sc3nc4c(cc32)COC(C)(C)C4)c(=O)n1CC(=O)NCc1ccco1	0	9	-2	10976	2.8	27	-94
20	COc1ccccc1C(=O)Nc1c(-c2ccccc2)nc2ccccn12	4	4	9	3856	1.8	-4	-30
21	CCCC(CCC)c1nc2ccncc2[nH]1	4	4	1	2311	0.8	2	-21
22	CCC(C)[C@H](NC(=O)NC(C)C)C(=O)O (some centres not stated)	/	/	/	2292	/	-10	-11
23	C#CCOCCOCCOCCNc1nc(N2CCN(C(=O)C(CCC(=O)O)n3cc(C(N)C(C)CC)nn3)CC2)nc(N2CCN(C(=O)C(C(C)CC)n3cc(C(N)CO)nn3)CC2)n1 (configuration not stated)	-3	11	4	/	8.5	/	/
24	COc1ccc(/C=C/C(=O)OCC(=O)NCCNC(=O)COC(=O)/C=C/c2ccc(OC)cc2)cc1	5	1	13	4306	4.9	-7	-4

no.	Molecule	Mtb hypoxia rep	Mtb hypoxia rep growth	Sa ugtP lethal	Bead autofluor	Sa RN4220 lethal	BJeLR viability	PrP 5UTR inh
25	Cc1ccc(S(=O)(=O)N2CCCOC2CNC(=O)C(=O)NC2CCCCC2)cc1 (configuration not stated)	7	8	-2	2382	2.8	-1	-11
26	COc1cc(N)c(Cl)cc1C(=O)OCC(=O)Nc1ccc(N2CCOCC2)cc1	3	3	6	2502	4.1	/	-9
27	COc1cc(O)c(C(CCN2CCOCC2)c2ccc(N(C)C)cc2)c(OC)c1 (configuration not stated)	6	4	6	3676	7.9	7	-6
28	O=C(CSc1nc(C(F)(F)F)cc(=O)[nH]1)Nc1cccc2ccccc12	-4	-4	2	4728	6.5	2	0
29	CC(CC(=O)Nc1cc(C)ccn1)=NNC(=O)c1cccc(C)c1	6	10	-3	/	2.5	/	/
30	OCCNCC(O)CN1c2ccccc2Sc2ccccc21 (configuration not stated)	9	0	3	3785	-3.2	8	-6
31	O=C(O)c1ccc2c(c1)S(=O)(=O)N=C1CCCCCN12	4	5	4	3577	2.7	13	-12
32	CCCOc1nnnn1-c1ccccc1	15	13	2	9043	4.7	-9	-8

no.	Molecule	Mtb hypoxia rep	Mtb hypoxia rep growth	Sa ugtP lethal	Bead autofluor	Sa RN4220 lethal	BJeLR viability	PrP 5UTR inh
33	Cn1c(-c2ccc(CN3CCCCC3)o2)nc2ccccc21	/	/	4	4954	2.9	3	-85
34	COc1ccc2nc(N3C(=O)CC(C(C)c4ccccc4)C3=O)sc2c1 (configuration not stated)	8	0	7	2829	3.2	5	-12
35	CS(=O)(=O)N1CCN(c2ccccc2NC(=O)c2cccnc2)CC1	8	10	-2	2621	-13	2	-10
36	COc1cc(C)c(Cl)cc1S(=O)(=O)N1CCCC1	1	1	-2	3437	1.7	-1	-13
37	CCN1CCc2c(OCC(=O)Nc3ccc(C)cc3)cccc2C1=O	8	16	6	6103	1.2	-11	-11
38	Cc1cc(NC(=O)COC(=O)[C@@H](NS(=O)(=O)c2ccc(Br)cc2)C(C)C)no1	3	14	1	4307	6.6	-9	-34
39	CC(C)(C)n1cn[nH]c1=S	15	3	4	5167	4.2	-12	-18
40	O=C(Nc1ccc(OC(F)(F)F)cc1)c1ccc2ccccc2n1	-3	12	16	4441	16	-2	-41

Part of the list above in order of number of heavy atoms, smallest number first.
no.	Molecule	Mtb hypoxia rep	Mtb hypoxia rep growth	Sa ugtP lethal	Bead autofluor	Sa RN4220 lethal	BJeLR viability	PrP 5UTR inh
36	COc1cc(C)c(Cl)cc1S(=O)(=O)N1CCCC1	1	1	-2	3437	1.7	-1	-13
40	O=C(Nc1ccc(OC(F)(F)F)cc1)c1ccc2ccccc2n1	-3	12	16	4441	16	-2	-41
38	Cc1cc(NC(=O)COC(=O)[C@@H](NS(=O)(=O)c2ccc(Br)cc2)C(C)C)no1	3	14	1	4307	6.6	-9	-34

Next compounds
no.	Molecule	Mtb hypoxia rep	Mtb hypoxia rep growth	Sa ugtP lethal	Bead autofluor	Sa RN4220 lethal	BJeLR viability	PrP 5UTR inh
41	COc1ccc2oc(=O)c(C(=O)O)cc2c1	2	6	-2	20889*	3.7	6	-26
42	COc1ccc(-c2nn(-c3ccccc3)cc2C=NNC(=S)NC(C)C)cc1OC	4	-4	-3	/	-3.2	/	/
43	CC(CS(=O)(=O)c1ccc2c(c1)NC(=O)CS2)C(=O)NCc1ccccc1Cl (configuration not stated)	4	2	4	5948	11	14	-14
44	Cc1n[nH]c(=O)nc1NCc1ccc(Cl)cc1	6	7	1	3375	0.2	-3	-15
45	Cc1c(C(=O)NCc2ccc3c(c2)OCO3)sc2nc(-c3ccc(F)cc3)cn12	5	13	-17	5848	-5.0	7	-14
46	Cc1ccc(C2CC(=O)NC(SCc3ccccc3)=C2C#N)cc1 (configuration not stated)	-6	2	-5	?	2.6	7	3
47	O=C(Cn1nc(-c2ccccc2)ccc1=O)NCCN1CCN(Cc2ccccc2)CC1	15	2	4	6531	1.5	-1	-11
48	CC(Oc1ccc(Cl)cc1)C(=O)NCCN1C(=O)S/C(=C\c2cccnc2)C1=O (configuration not stated)	/	/	/	8361	/	8	7

no.	Molecule	Mtb hypoxia rep	Mtb hypoxia rep growth	Sa ugtP lethal	Bead autofluor	Sa RN4220 lethal	BJeLR viability	PrP 5UTR inh
49	CCOC(=O)C1=C(c2ccccc2)Nc2ncnn2C1c1ccc(OC)c(OC)c1OC (configuration not stated)	0	5	2	9915	6.2	-1	-9
50	CCn1c2ccccc2c2nnc(SCC(=O)N(C)C3CCS(=O)(=O)C3)nc21 (configuration not stated)	11	0	2	2539	0.9	-28	-69
51	CCC(=O)c1ccc(OCC(=O)OCC(=O)Nc2sccc2C(N)=O)cc1	4	7	8	3286	-4.0	9	-12
52	COC(=O)c1c(NC(=O)c2ccccc2[N+](=O)[O-])sc2c1CC(C)(C)NC2(C)C	9	4	6	6297	5.4	17	-28
53	CC(C)Cc1nnc(NC(=O)Cc2ccc([N+](=O)[O-])cc2)s1	/	/	/	7572	/	12	-16
54	COc1ccccc1C(=O)NNC(=O)c1ccc(NC(=O)c2ccccc2)cc1	8	6	12	4358	-0.3	0	-32
55	CC(=NNc1ccccc1C(=O)O)c1ccncc1	-3	-4	13	/	5.9	/	/
56	COC(=O)c1cc(=O)n(-c2ccc(F)cc2)c(=Nc2ccc(F)cc2)s1	25	31	1	5864	-13	8	-7

no.	Molecule	Mtb hypoxia rep	Mtb hypoxia rep growth	Sa ugtP lethal	Bead autofluor	Sa RN4220 lethal	BJeLR viability	PrP 5UTR inh
57	CCn1c(=O)c(C(=O)NNC(=O)c2ccccc2Cl)c(O)c2ccccc21	7	-5	-16	5383	14	3	-23
58	NC(=O)c1cc(C(=O)c2ccc(Cl)cc2Cl)c[nH]1	-4	2	3	4684	2.5	5	0
59	COc1ccc(-c2csc(NC(=S)NC(=O)c3ccccc3)n2)cc1Br	/	/	-7	3589	-0.6	2	/
60	COc1ccc(N2CC(C(=O)NN=Cc3ccccc3)CC2=O)cc1 (configuration not stated)	9	4	8	/	2.2	/	/
61	COCc1nnc(NC(=O)CC(c2ccccc2)c2ccccc2)s1	-2	6	2	3324	-9.8	-5	-18
62	CCCn1cc(NC(=O)C2CC(c3cccc(Br)c3)=NO2)cn1 (configuration not stated)	-2	-2	-4	4296	3.6	-8	-6
63	CCCC(=O)NC1=C(C#N)C2(CCCC2)Cc2ccccc21	-6	-10	-6	17626*	-4.8	1	1
64	O=C(Nc1cccc(F)c1)C1CCN(C(=O)c2ccc(Cl)cc2)CC1	0	1	-4	2165	7.2	7	-27

no.	Molecule	Mtb hypoxia rep	Mtb hypoxia rep growth	Sa ugtP lethal	Bead autofluor	Sa RN4220 lethal	BJeLR viability	PrP 5UTR inh
65	O=C(Cc1ccccc1)NN=Cc1ccc2cccc(O)c2n1	-1	9	-4	/	-1.1	/	/
66	CCOC(=O)c1sc(N=NC2=C(O)CCCC2=O)c(C(=O)OCC)c1C	7	11	4	4444	-0.2	1	-3
67	O=C(CSc1nnnn1Cc1ccccc1)Nc1ccc2c(c1)OCO2	/	/	13	3213	-0.3	6	-10
68	S=C1NC2(CCCC2)N=C1c1ccccc1	6	2	2	4551	2.8	-8	-17
69	Nc1c(-c2cccs2)cnn1-c1nc(-c2ccc(Cl)cc2Cl)cs1	-2	-3	-8	23441*	-3.4	3	-8
70	CCOC(=O)c1c(C)nc2ccc(C)cn12	/	/	1	2559	8.5	5	-24
71	CCOn1c(=O)c(-c2ccc(C)cc2)[n+]([O-])c2ccccc21	-2	-1	-1	3966	4.9	-2	-25
72	Cc1ccc(SCC(=O)NCCN2C(=O)CSC2=O)cc1C	4	6	-2	23097*	-0.5	-2	-23
73	O=c1c(Cc2ccc(F)cc2)c(O)ccn1C1CC1	/	/	5	2070	2.7	-5	9
74	CCCCCn1c(N2CCC(Cc3ccccc3)CC2)nc2c1c(=O)[nH]c(=O)n2C	/	/	/	4713	/	1	-5
75	CCC(CO)Oc1cc(NCc2ccc(Cl)cc2)c2ncn(C(C)C)c2c1 (configuration not stated)	9	12	7	3892	5.5	/	-5
